motility – Vibrio cholerae motility inhibitors, OD read-out (AID 588778); Vibrio cholerae motility, OD read-out; higher % means a stronger effect; test concentration not given here; primary cut-off and reference of the scale not given here; strong numbers were not always called active; 10,000 tested, under 10 active; one-dose inhibition, %; IC50 in µg/mL for titrated hits; in the data active = confirmed in a dose series
motility viability – also measured in motility; calls as there; inhibition, %; measured here: bacterial viability at 10 ug/mL;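 higher means fewer living bacteria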
* hit, by the source's call. Not all compounds are listed. The share of hits here may be higher or lower than overall.

Molecule	motility	motility viability
CC(C)(C)C(=O)N1CCN(c2ccc([N+](=O)[O-])c(N3CCc4ccccc4C3)c2)CC1	-19%	-12
COc1ccc(CN2CCCC(C(=O)Nc3c(C)cccc3C)C2)cc1OC (centres undefined)	-2%	3
O=C1Nc2c(C(F)(F)F)cccc2C12SCCS2	16%	14
COCc1cc(C)nc(SCC(=O)N2c3ccccc3SC3C=CC=CC32)c1C#N (centres undefined)	-2%	-3
CCOC(=O)C1CCN(C(=O)CN(c2cc(Cl)ccc2OC)S(=O)(=O)c2ccc(C)c([N+](=O)[O-])c2)CC1	5%	-1
Cc1nnc(Nc2cccc(C(F)(F)F)c2)c2ccccc12	9%	0
COc1ccc(-c2csc(NC(=O)c3c(F)c(F)c(F)c(F)c3F)n2)cc1OC	-5%	-5
CC(Oc1ccccc1)C(=O)Nc1cccc(-c2cn3ccccc3n2)c1 (centres undefined)	-2%	-4
Cc1cc(Cl)c(OCCCN2CC(C)OC(C)C2)c(Br)c1 (centres undefined)	3%	0
Cc1ccccc1CN1CCN(C(=O)c2ccc(-c3ccccc3)cc2)CC1	5%	-1
O=C(CCS(=O)(=O)Cc1ccccc1)Nc1nc2c(s1)CCCC2	1%	-6
O=C(c1ccc(Br)o1)N1CCN(c2ncccn2)CC1	2%	0
Cc1cc(C)nc(SCC(=O)Nc2ccc(S(=O)(=O)NCCO)cc2)n1	2%	5
Cn1ncc([N+](=O)[O-])c1C(=O)Nc1cc(Cl)ccc1Cl	-7%	1
COc1cc(C)c(S(=O)(=O)N2CCc3ccccc3C2)cc1C	0%	-4
Cc1nn(CC(O)c2ccccc2)c(C)c1Br (centres undefined)	7%	5
CC(=O)c1ccc(NC(=O)NCc2ccc(Cl)cc2Cl)cc1	-6%	-4
NC1=NC(=O)C(CC(=O)Nc2ccccc2)S1 (centres undefined)	8%	31
O=C(Nc1nnc(SCc2ccccc2Cl)s1)c1ccccc1Cl	-8%	-3
O=C(NCc1cccnc1)c1c(F)c(F)c(F)c(F)c1F	6%	-9
Cc1c(OS(C)(=O)=O)ccc2c1oc(=O)c1ccccc12	-3%	-3
O=S(=O)(Nc1cc(Sc2cccc3cccnc23)c(O)c2ccccc12)c1ccccc1	28%	3
CCC1CCCCN1C(=O)N(CC)CC (centres undefined)	-4%	6
COc1cc(OC)c(OC)cc1CNCc1ccc2c(c1)OCO2	8%	-2
COc1ccc(C(=O)ON2C(=O)CCC2=O)cc1I	5%	0

Fetched by compound from the list above, five records:
Molecule	motility	motility viability
O=C(NCc1cccnc1)c1c(F)c(F)c(F)c(F)c1F	6%	-9
Cc1ccccc1CN1CCN(C(=O)c2ccc(-c3ccccc3)cc2)CC1	5%	-1
CCOC(=O)C1CCN(C(=O)CN(c2cc(Cl)ccc2OC)S(=O)(=O)c2ccc(C)c([N+](=O)[O-])c2)CC1	5%	-1
Cc1nnc(Nc2cccc(C(F)(F)F)c2)c2ccccc12	9%	0
Cc1c(OS(C)(=O)=O)ccc2c1oc(=O)c1ccccc12	-3%	-3

(more compounds)
Molecule	motility	motility viability
Cc1sc2ncnc(SCc3ccc([N+](=O)[O-])cc3)c2c1C	5%	3
O=C1C2C3C=CC(C3)C2C(=O)N1Nc1ccccc1 (centres undefined)	5%	3
COc1cc(C(=O)O)cc(I)c1OCC(=O)NCCc1ccccc1	-2%	-2
O=C1NC(=S)N(Cc2ccccc2)C(=O)C1(CCc1ccncc1)CCc1ccncc1	-13%	-2
O=C(c1ccco1)N(Cc1cccs1)c1ccc(O)cc1	20%	1
Cc1noc(-c2ccccc2OC(=O)c2ccccc2)n1	9%	3
O=S(=O)(/N=C(\Nc1ccc(OC(F)(F)F)cc1)c1ccccc1)c1ccc(Br)cc1	-9%	-8
O=C(NCCO)c1ccc(Cl)c(Cl)c1	-9%	-2
N#Cc1nc(N2CCCCC2)nc(N2CCOCC2)n1	-2%	-8
CC(C(=O)NCCCN1CCOCC1)c1ccc([N+](=O)[O-])cc1 (centres undefined)	-10%	-2
CC(=O)Nc1ccccc1C(=O)C(=O)NCc1ccco1	-17%	-6
Cc1cc2n(n1)C(O)(C(F)(F)F)CC(O)(C(F)(F)F)N2 (centres undefined)	8%	3
O=C(c1ccco1)N1CCN(c2ccnc3cc(Cl)ccc23)CC1	19%	-1
O=C1NC(=O)C(Cc2cccs2)C(=O)N1	-15%	1
COC(=O)c1ccc(C(=O)OC)c(NC(=O)c2cc(-c3ccco3)nc3ccccc23)c1	53%	10
CCOc1ccc2nc(NC(=O)CSc3nc(SC)ns3)sc2c1	-22%	-9
c1ccc2sc(NC3=NCN(Cc4ccc5c(c4)OCO5)CN3)nc2c1	-8%	1
CCCCc1c(C)nc2ccc(Br)cc2c1SCCC(=O)O	9%	-2
O=C(CN(c1cccc([N+](=O)[O-])c1)S(=O)(=O)c1ccccc1)NCCC1=CCCCC1	-1%	-4
O=[N+]([O-])c1ccc(-c2cnc(-c3ccc(Br)cc3)nc2)cc1	21%	8
O=[N+]([O-])c1cc(C(F)(F)F)ccc1NCCCO	7%	-5
CCC(Sc1ncc(-c2ccccc2)nn1)C(=O)NC(C)c1ccccc1 (centres undefined)	-2%	-1
O=C(CCCOc1ccc(Cl)cc1Cl)N1CCN(c2ccccc2)CC1	23%	-1
CCCCOc1ccc(Cl)cc1CSc1n[nH]c(C)n1	-2%	-6
CCOC(=O)N1CCN(S(=O)(=O)c2cccc3ccc(C)nc23)CC1	4%	-11
CCC(Sc1nc(N)cc(=O)[nH]1)C(=O)NC(C)c1ccccc1 (centres undefined)	0%	-5
O=c1[nH]c(/C=C/c2ccsc2)c([N+](=O)[O-])c(=O)[nH]1	11%	1
CC(Nn1cnnc1)c1cc(Cl)ccc1O (centres undefined)	3%	-2
O=C(NC(=S)N1CCN(c2ccc(C(F)(F)F)cc2[N+](=O)[O-])CC1)c1ccccc1F	10%	3
CCCC(=O)Nc1ccc(C(=O)NCc2ccccn2)cc1	19%	33
S=C(NCc1ccc(Cl)cc1)NN1CCOCC1	-1%	-2
O=C(c1ccc(CSCc2ccccc2)cc1)N(Cc1ccccc1)Cc1ccccc1	-6%	-6
O=C1c2ccccc2C(O)(c2ccccc2)N1c1ccc(N2CCOCC2)cc1 (centres undefined)	7%	4
CNS(=O)(=O)c1cccc2ccccc12	9%	2
Cc1cc(Br)cc(C)c1OC(=O)c1ccccc1Cl	5%	25
COc1ccc(C(=O)NC(=S)Nc2cccc([N+](=O)[O-])c2C)cc1I	6%	-4
c1ccc(-n2nnnc2-n2cnc3ccccc32)cc1	15%	3
Cc1cc(NC(=O)C(NC(=O)c2ccc(F)cc2)C23CC4CC(CC(C4)C2)C3)no1 (centres undefined)	9%	19
Nc1c(S(=O)c2ccccc2)sc2nc(-c3cccs3)cc(C(F)(F)F)c12 (centres undefined)	-11%	-1
CCCCS(CCCC)=C1C(=O)NC(=O)N(CCc2ccc(F)cc2)C1=O	13%	-6
O=C(c1ccc(S(=O)(=O)c2ccccc2)cc1)N1CCCc2ccccc21	-6%	-6
Cc1cc(C)nc(Sc2nnc(C)c3ccccc23)n1	0%	-6
COc1ccc(C(=O)NC2CC(C)(C)Cc3occc32)cc1 (centres undefined)	-2%	-6
CCOc1ccc(-n2c(SCc3c(Cl)cccc3Cl)nnc2-c2cccnc2)cc1	-3%	1
COc1c2occc2cc2ccc(=O)oc12	27%	3
CCC(Sc1nc2ccccc2[nH]1)C(=O)Nc1ccc(NC(C)=O)cc1 (centres undefined)	-6%	0
O=C(Nc1ccc(S(=O)(=O)NC(=O)C2CCCCC2)cc1)c1ccccc1Cl	-7%	-3
O=C(Nc1ccc(I)cn1)c1cccnc1	14%	-2
C=CCN(CC=C)Cc1c(C)[nH]c2ccc(C(=O)OCC)cc2c1=O	-28%	-9
CCn1c2ccccc2c2cc(NC(=O)CCCN3C(=O)CCC3=O)ccc21	12%	6

Further structures follow:
Molecule	motility	motility viability
Cc1cc(C(=O)Nc2sccc2C(=O)Nc2ccccc2F)cs1	-12%	-4
O=S(=O)(Cc1ccccc1)N1CCN(CC2CC=CCC2)CC1 (centres undefined)	5%	0
O=C(CC12CC3CC(CC(C3)C1)C2)NC(=S)Nc1ccc(CN2CCOCC2)cc1	9%	10
CC1(C)C(=O)Nc2ccccc2N1C(=O)c1cccc([N+](=O)[O-])c1	8%	-2
O=C(Cn1c(-c2cncs2)nc2ccccc21)Nc1ccc2c(c1)OCCO2	-1%	-4
Cc1nn(S(=O)(=O)N2CCCCCC2)c(C)c1Cl	-2%	-6
Cc1oc(-c2ccc3c(c2)OCO3)cc1C(=O)O	1%	-1
CCOc1cc(/C=C2/N=C(c3ccc(NC(C)=O)cc3)OC2=O)ccc1OC(=O)c1cccs1	-5%	-8
COc1cc(C(=S)N2CCOCC2)cc(OC)c1OC(=O)c1ccccc1[N+](=O)[O-]	-3%	-4
C=CCN(CC=C)C(=S)Nc1cc(C)ccc1OC	-1%	1
O=C(NC(Cc1ccccc1)C(=O)NCc1ccco1)c1ccccc1 (centres undefined)	-20%	-2
CC1(C)CC(CC(=O)NC(=S)Nc2ccc([N+](=O)[O-])cc2)C(=O)O1 (centres undefined)	-2%	4
Cc1ccc(N(O)C(=O)Nc2ccccc2)cc1	3%	-4
CCc1nccn1S(=O)(=O)c1cc(C)c(OC)cc1C	4%	-7
Cc1cccc(C)c1OCC(=O)NNC(=O)c1ccncc1	-7%	-7
O=C(c1cnn2cccnc12)N1CCN(Cc2ccc3c(c2)OCO3)CC1	15%	3
Cc1ccc(C(=O)NNC(=O)c2ccncc2)cc1C	12%	0
O=C(CNC(=O)c1ccccc1F)NCCOc1ccccc1Cl	22%	12
O=C(c1nc(SCc2ccccc2)ncc1Cl)N1CCN(c2cccc(Cl)c2)CC1	-6%	-7
Cc1ccc(S(=O)(=O)CC(=O)Nc2ccccc2-c2ccccc2)cc1	12%	8
CS(=O)(=O)Nc1ccc2c(c1)COC2=O	-16%	-3
COc1ccc([N+](=O)[O-])cc1NC(=O)c1cncc(Br)c1	-8%	-2
COC(=O)c1cc(S(=O)(=O)n2nc(C)cc2C)c(Cl)cc1Cl	2%	-2
COc1ccc(OC)c(NC(=O)Nc2ccc(C)cn2)c1	-7%	-1
COc1ccc(OC)c(C(C)NC(=O)c2ccccc2Br)c1 (centres undefined)	-3%	-5
O=S(=O)(c1cccs1)n1nnc2ccccc21	2%	-2
COc1ccc(Cl)cc1N(CC(=O)Nc1ccc(Br)cc1F)S(C)(=O)=O	20%	1
COc1ccc(CNC(=O)C2CC=CCC2C(=O)O)cc1OC (centres undefined)	-7%	0
CC(=O)Nc1ccc(CNCC(C)C)cc1	-18%	-10
Cc1ccc(-c2csc(N)c2C(N)=O)cc1C	9%	2
CCOC(=O)/C=C1/NC2(CCCC2)Cc2cc(OC)c(OC)cc21	-16%	-4
O=C(c1cccc(-n2cnnn2)c1)N1CCOCC1	-9%	-5
C=C(C)CC(c1ccccc1)N(C(C)=O)c1ccco1 (centres undefined)	11%	0
O=C(O)c1cccc2c1NC(c1ccc3c(c1)OCO3)C1C3CCC(C3)C21 (centres undefined)	50%	49
O=c1cc(C(F)(F)F)[nH]n1-c1ccccc1	20%	0
CCC(=O)N1CCN(c2cc(Cl)ccc2C)CC1	14%	5
O=C1CSC2(C(=O)Nc3ccccc32)N1c1cc(Cl)cc(Cl)c1 (centres undefined)	10%	4
O=C(CSc1nnc(-c2ccco2)o1)Nc1nc2ccccc2s1	14%	5
CCOC(=O)N1CCC(n2c(=S)[nH]c3ccccc3c2=O)CC1	4%	-7
O=C(CSc1ccccc1)Nc1ncn[nH]1	16%	-6
O=C(CSc1nnc2ccccn12)N1CCc2ccccc2C1	12%	-2
O=S1(=O)N=C(Nc2ccc(Cl)c(C(F)(F)F)c2)c2ccccc21	-17%	-2
O=C(Nc1nc(-c2ccc(S(=O)(=O)N3CCCC3)cc2)cs1)C1COc2ccccc2O1 (centres undefined)	11%	14
COc1cc(NC(=O)Cc2ccc(Cl)cc2)ccc1NC(=O)c1cc2ccccc2o1	8%	-4
CC(=O)OC(C(=O)N1c2ccccc2C(Nc2ccccc2)CC1C)c1ccccc1 (centres undefined)	-15%	-9
CN(Cc1ccccc1)S(=O)(=O)c1ccc(NC(=S)Nc2ccccc2)cc1	9%	3
Oc1ccc(Cn2ccnc2)c2cccnc12	-6%	-4
COc1ccccc1C(=O)Nc1cnn(Cc2ccccc2C)c1	19%	6
NS(=O)(=O)c1ccc(NC(=S)Nc2ccc3c(c2)CCC3)cc1	2%	-3
CN(C)CCNC(=S)Nc1cccc2ccccc12	15%	0

Record cards, as listed above. Order of values: motility	motility viability
CS(=O)(=O)Nc1ccc2c(c1)COC2=O in the list: -16%	-3
CC(Oc1ccccc1)C(=O)Nc1cccc(-c2cn3ccccc3n2)c1 (centres undefined) in the list: -2%	-4
O=S(=O)(Nc1cc(Sc2cccc3cccnc23)c(O)c2ccccc12)c1ccccc1 in the list: 28%	3
O=C(c1ccco1)N(Cc1cccs1)c1ccc(O)cc1 in the list: 20%	1
Cc1cc(Cl)c(OCCCN2CC(C)OC(C)C2)c(Br)c1 (centres undefined) in the list: 3%	0

Later entries
Molecule	motility	motility viability
CN(C)c1ccc2c(=O)[nH][nH]c(=O)c2c1	12%	6
O=[N+]([O-])c1ccccc1-c1ccc(NC(=S)NCc2ccco2)cc1	-10%	-13
COC(=O)N(C)CC1Cc2ccccc2O1 (centres undefined)	78%	16
Cc1cc(C)c2oc(-c3ccc(C)c(NC(=S)NC(=O)c4oc5ccccc5c4C)c3)nc2c1	10%	6
CCOC(=O)c1cc(-c2ccccc2)sc1NC(=S)N1CCN(C(=O)c2ccco2)CC1	-8%	-5
